High-throughput results (PubChem)
RGS16-Gao HTS: modulators of RGS16 binding to Galphao, primary screen, biochemical, human proteins, multiplexed bead flow cytometry. Regulator of G-protein signaling 16 (Homo sapiens) + Guanine nucleotide-binding protein …. bead-based flow cytometry RGS16-Galphao binding, fluorescence; actives lie on both sides. binding response (% of control), % at 10 µM. 220,000 tested, 0.38% active. AID 1441, 2008;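 active = below 25% or above 175%, edge rows of some plates excepted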;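 also: Galphao activated by GDP with aluminum fluoride before binding; 100% = wells without compound and 0% = beads without RGS; some results beyond the cut were filed as inactive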
Target sequence (O15492 whole entry, looked up): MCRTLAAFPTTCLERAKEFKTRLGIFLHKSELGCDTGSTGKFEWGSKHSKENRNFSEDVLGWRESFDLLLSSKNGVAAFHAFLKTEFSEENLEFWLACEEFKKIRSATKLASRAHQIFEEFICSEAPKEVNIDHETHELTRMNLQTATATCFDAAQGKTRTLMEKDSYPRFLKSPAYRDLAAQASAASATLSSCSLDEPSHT
Target sequence (P09471 whole entry, looked up): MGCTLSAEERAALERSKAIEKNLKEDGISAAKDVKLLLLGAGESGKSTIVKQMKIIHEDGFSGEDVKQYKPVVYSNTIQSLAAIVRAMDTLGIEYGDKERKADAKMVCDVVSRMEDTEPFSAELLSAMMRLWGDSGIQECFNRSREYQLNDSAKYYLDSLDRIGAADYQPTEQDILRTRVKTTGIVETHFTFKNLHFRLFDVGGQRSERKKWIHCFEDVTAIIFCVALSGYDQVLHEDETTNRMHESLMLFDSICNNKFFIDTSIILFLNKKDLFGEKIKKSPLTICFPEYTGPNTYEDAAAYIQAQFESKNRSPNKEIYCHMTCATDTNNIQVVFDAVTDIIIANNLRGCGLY
GALR2 ag: GALR2 receptor agonists, primary screen, cell-based. 140,000 tested, 0.48% active. GALR2-expressing cells, agonist activation read-out. activation, %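 (tested at 5 µM)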. AID 803, 2007;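 active = above mean plus 3 SD of all compounds, about 5% in these data, not always enough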;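 also: 0% = vehicle buffer wells and 100% = reference agonist at full effect; tested in CHO reporter cells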
Target sequence (O43603 whole entry, looked up): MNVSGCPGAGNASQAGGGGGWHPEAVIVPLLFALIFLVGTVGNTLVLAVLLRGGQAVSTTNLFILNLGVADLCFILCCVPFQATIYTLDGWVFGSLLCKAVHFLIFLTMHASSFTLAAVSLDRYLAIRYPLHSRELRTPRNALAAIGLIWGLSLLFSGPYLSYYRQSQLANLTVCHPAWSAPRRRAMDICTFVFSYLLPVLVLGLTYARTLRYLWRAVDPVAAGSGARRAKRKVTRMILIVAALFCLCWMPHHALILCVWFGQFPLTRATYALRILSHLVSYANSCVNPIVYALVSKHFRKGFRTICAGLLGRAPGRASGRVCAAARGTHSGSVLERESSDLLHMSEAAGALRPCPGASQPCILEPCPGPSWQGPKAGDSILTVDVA
HSV augment: enhancers of HSV replication in host cells, fold increase, host cell viability; HSV replication augmentation in cells; maximum fold increase; 220,000 tested, 0.005% active; AID 1956, 2009;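 active = peak rise of 1.5-fold or more in the series; inconclusive = self-fluorescent or not available for retest; tested in PC3 cells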;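 also: first round at 10 µM; read as green reporter fluorescence; hits show the peak of a series up to 25 µM; 1 = signal of infected wells without compound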
INS promoter inh: inhibitors of insulin promoter-driven GFP, primary screen, imaging, TRM-6 cells (human fetal islet line), eGFP reporter, cell count; 130,000 tested, 0.9% active; reporter expression induced with tamoxifen; inhibition, % at 2 µM; AID 1273, 2008;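 active = inhibition above the mean plus 3 SD, with well images judged a real hit on visual review, cut at about 60% in these data, passing the limit was not always enough; inconclusive = inhibition over the cutoff but images rejected on review; inactive = inhibition not above the cutoff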
PKD1 kinase inh: inhibitors of human PKD1 kinase, biochemical, fluorescence polarization. Serine/threonine-protein kinase D1 (Homo sapiens), Q15139. PKD1 kinase fluorescence polarization assay. inhibition, %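 (about 10 µM by stock and volumes)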. 200,000 tested, 0.056% active. AID 797, 2007;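 active = inhibition of 50% or more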;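 also: controls were vehicle for no effect and a reference inhibitor for full effect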
INS promoter inh cell count: second read-out of INS promoter inh, no call of its own (marks repeat the call); normalized cell count, %; measured here: cell count, toxicity; reference of the scale not given here;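 cells exposed to compound for 48 h; stained nuclei by imaging scaled within each plate; lower means fewer cells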
HSV augment primary fold: second read-out of HSV augment, no call of its own (marks repeat the call); fold increase; compound at 10 µM; measured here: primary screen fold increase 10 uM; tested in PC3 cells;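 GFP signal in the first replicate; 1 = infected wells without compound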
Numbers without * were called inactive; i = inactive; ? = inconclusive; . = no result given.

structure	RGS16-Gao HTS	GALR2 ag	HSV augment	HSV augment primary fold	INS promoter inh	INS promoter inh cell count	PKD1 kinase inh
CC(C)N(C(=O)Cn1cc(SCC(=O)NCC2CCCO2)c2ccccc21)C(C)C (centres undefined)	103	.	i	0.94	.	.	-3
COc1ccccc1OCCCCCCN1CCOCC1	103	.	i	1	-11	70	10
Cc1cccc(NC(=S)NC(=O)C(c2ccccc2)c2ccccc2)n1	.	2.3	i	0.88	72*	29*	0
O=C(O)C1CCCCC1C(=O)Nc1ccccc1F (centres undefined)	100	-0.6	i	0.81	20	144	-6
Brc1ccc(-c2csc(N/N=C/c3ccc4c(c3)OCO4)n2)cc1	97	-0.6	i	0.95	-4	141	-8
CCN(c1ccccc1)S(=O)(=O)c1cc(C(=O)Oc2ccc3c(C)cc(=O)oc3c2)ccc1C	106	0.1	i	0.98	-3	81	-8
CC(=O)CSc1nnc(-c2ccncc2)n1C	102	-2.2	i	1.1	-11	98	-4
Cc1ccc(S(=O)(=O)Nc2cccc(/C=C/C(=O)O)c2)cc1	106	-2.6	i	0.92	.	.	-14
CS(=O)(=O)Oc1ccc2c(c1)O/C(=C\c1cccnc1)C2=O	100	.	i	1.2	.	.	.
COc1cccc(/C=N/NC(N)=S)c1OS(=O)(=O)c1ccccc1	102	0.7	i	0.85	-88	123	2
C/C(CC(C)C)=N\Nc1ccc(S(N)(=O)=O)cc1[N+](=O)[O-]	102	.	i	0.91	-64	88	-3
Cc1ccnc(NC(=O)C2CCN(S(=O)(=O)c3cccc4nsnc34)CC2)c1	103	-0.8	.	.	-125	94	10
CC(C)(C)NC(=O)CCCCCCCC(=O)NC(C)(C)C	98	.	i	1.1	-11	106	-2
CC(C)(C)C(=O)Nc1ccc(C(=O)N/N=C/c2ccccc2OC(=O)c2ccccc2)cc1	108	-3.2	i	0.61	0	106	9
CCCCCCCCOc1ccc(C2OC34CCCCC3C(C#N)(C#N)C2(C#N)C(=N)O4)cc1 (centres undefined)	100	2.5	?	.	-22	89	2
O=C(O)CCC(=O)N(Cc1ccco1)c1nc(-c2ccccc2)cs1	108	1.1	i	0.69	3	119	6
CC1CCCCN1S(=O)(=O)c1cccc2cccnc12 (centres undefined)	97	-1.9	i	0.83	.	.	-8
O=C(NCc1ccc(F)cc1)c1c(O)c2cccc3c2n(c1=O)CCC3	100	-0.8	i	0.95	.	.	-12
COc1ccc2ccc(Oc3ncccn3)cc2c1	102	-0.3	.	.	.	.	2
O=C(CSc1nc2cc(Cl)ccc2s1)c1ccco1	98	-1.6	i	0.79	.	.	-5
Cc1ccc2c(c1)cc(CN(Cc1cccnc1)C(=O)c1ccccc1)c1nnnn12	105	.	i	0.86	-7	133	2
CCC(CC)C(=O)Nc1ccc(C(=O)Nc2cc(C)on2)cc1	102	.	i	1.1	17	67	1
COc1ccc2nc(C)cc(N3CCOCC3)c2c1	32	-1.8	i	0.87	15	120	2
Fc1ccc(Oc2nnnn2-c2ccccc2)cc1	107	.	i	0.95	.	.	0
CS(=O)(=O)Nn1cnc2ccccc2c1=O	102	-0.4	i	0.93	-4	142	0
CC1(CCc2ccccc2)NC(=O)N(CC(=O)Nc2ccc(S(N)(=O)=O)cc2)C1=O (centres undefined)	99	.	i	0.85	.	.	-7
O=C(/C=C/c1ccccc1)NC1CCSC1=O (centres undefined)	99	-1.6	i	0.88	-17	73	-14
CCOC(=O)c1sc(NC(=O)CCN2CCOCC2)c(C(=O)OCC)c1C	102	1.0	i	0.95	58	108	4
Clc1ccc(COn2c(-c3ccc(Cl)cc3)nc3ccccc32)cc1	105	-1.7	i	0.97	.	.	1
CC(=O)C1C(c2ccc(Br)cc2)c2c(noc2C)CC1(C)O (centres undefined)	100	.	i	0.9	.	.	.
CC(C)[C@H](NC(=O)c1ccccc1)C(=O)OCc1nc2scc(-c3ccccc3)c2c(=O)[nH]1	101	0.1	i	0.89	.	.	-1
O=C(c1ccccc1)c1cccc(NC(=O)c2ccco2)c1	98	-0.8	i	0.95	25	196	-3
COc1ccccc1Nc1nc(N)nc(CSc2nncn2C)n1	90	0.1	i	0.78	-18	118	-3
COCCN(C(=S)Nc1cccc(C)c1C)C(C)c1ccco1 (centres undefined)	99	.	i	0.93	.	.	-5
CC(C)(C)C(=O)Cn1c(=O)n(-c2ccc(F)cc2F)c(=O)c2sccc21	102	.	i	0.85	13	118	-6
Nc1ccccc1Nc1cc(-c2ccccc2)nn1-c1cccc(Cl)c1	128	1.4	i	1.3	-218	106	4
CCCC(=O)C1=C(O)C(C(=O)OC)C(C)(C)CC1=Nc1ccc(N)cc1 (centres undefined)	104	-3.4	i	0.9	0	116	16
C=CCc1cccc2cc(C(=O)N(C)C)c(=O)oc12	101	-1.2	i	0.81	-6	53	7
Cc1ccc(C2Nc3ccccc3C(=O)N2Cc2ccco2)cc1 (centres undefined)	78	-0.7	i	0.95	21	95	-10
O=[N+]([O-])c1cc(S(=O)(=O)NC2=NCCCCC2)ccc1Cl	99	.	i	0.96	27	186	-4
Cc1cc(C)cc(N2CCCn3c2nc2c3c(=O)n(CC(=O)OCc3ccccc3)c(=O)n2C)c1	105	0.8	i	0.9	.	.	-4
Cc1cc(C(=O)N/N=C2\CC(=O)CC(C)(C)C2)c(C)n1-c1ccccc1	99	-0.1	i	1.1	-13	95	5
O=C(O)c1c(-n2cccc2)sc2c1CCCC2	93	.	i	0.9	41	153	-2
CCOc1cc(C(=O)O/N=C(\N)c2ccc([N+](=O)[O-])cc2)cc(OCC)c1OCC	.	-1.7	i	0.86	17	100	0
O=C(c1cn(-c2ccccc2)nc1-c1cccc(Br)c1)N1CCOCC1	101	.	i	0.87	.	.	2
CSc1ccccc1NC(=O)Cn1ccsc1=N	75	.	i	0.88	0	154	-5
CCN1CCN(C(c2ccccc2)c2nnnn2Cc2ccc3c(c2)OCO3)CC1 (centres undefined)	103	.	i	1	.	.	-2
Cc1ccc(OCCSCc2nc3ccccc3[nH]2)cc1	108	-1.3	i	0.67	10	127	-4
CN(C)c1ccc(O)c2c1CC1CC3[C@@H](N(C)C)C(=O)C(C(N)=O)=C(O)[C@]3(O)C(=O)C1=C2O (some centres undefined)	100	-0.6	i	1	-5	88	-7
Cc1onc(-c2c(F)cccc2Cl)c1C(=O)NCCO	116	.	i	0.9	59	132	-5
Cc1cc(NC(=O)CCc2ccc(C)o2)no1	98	-0.3	i	0.93	-388	36	-3
Cc1nnc(SCCn2c(N(C)Cc3ccccc3)nc3c2c(=O)[nH]c(=O)n3C)s1	105	0.5	i	0.92	.	.	-4
O=C(NCc1ccccc1F)C1CCCN(C(=O)NC2CCCCC2)C1 (centres undefined)	38	-1.4	i	1.1	.	.	6
COc1ccc(/C=C/C(=O)NC(=S)N2CCN(c3ccccn3)CC2)cc1	92	.	i	1.1	.	.	.
CN(Cc1cccs1)C(=O)COc1cccc(-n2cnnn2)c1	105	-1.1	i	1	-29	106	-5
CN1CCN(C(=O)c2cccc(COc3cc(Cl)ccc3Cl)c2)CC1	.	-1.2	i	0.87	-305	46	-13
Cc1cc(C(=O)N/N=C/C=C/c2ccccc2[N+](=O)[O-])c(C)o1	102	.	i	0.91	.	.	-5
O=C(CCl)Nc1ccc(Oc2cnc3ccccc3n2)cc1	100	-1.2	i	0.73	.	.	0
C/C(=N\NC(=O)c1csc(C)c1C)c1ccc(C)s1	105	-1.7	i	0.77	20	121	-7
COC(=O)c1cccc(NC(=O)CSc2nnnn2C)c1	77	-0.9	i	1.1	.	.	8

Limited to HSV augment and GALR2 ag, for some of the entries so far:
| SMILES | HSV augment | GALR2 ag |
| --- | --- | --- |
| Cc1cc(C(=O)N/N=C2\CC(=O)CC(C)(C)C2)c(C)n1-c1ccccc1 | i | -0.1 |
| O=C(O)c1c(-n2cccc2)sc2c1CCCC2 | i | . |
| CCOc1cc(C(=O)O/N=C(\N)c2ccc([N+](=O)[O-])cc2)cc(OCC)c1OCC | i | -1.7 |
| O=C(c1cn(-c2ccccc2)nc1-c1cccc(Br)c1)N1CCOCC1 | i | . |

(further entries)
structure	RGS16-Gao HTS	GALR2 ag	HSV augment	HSV augment primary fold	INS promoter inh	INS promoter inh cell count	PKD1 kinase inh
CCN=C1SC(CC(=O)NC(C)C)C(=O)N1CC (centres undefined)	103	-2.7	i	0.9	-29	123	3
O=C(Nc1ccccc1Cl)c1cccc(COc2cc(Cl)ccc2Cl)c1	100	-1.9	.	.	-1	162	-10
O=c1ccc(S(=O)(=O)N2CCC(Cc3ccccc3)CC2)c[nH]1	93	0.1	i	0.95	31	101	-2
Cc1ccc(NCC(=O)Nc2cccc(S(=O)(=O)N(C)C)c2)c(Cl)c1	116	-1.2	i	0.97	0	53	-1
CC1(C)C2CCC1(C)C(OC(=O)C[n+]1ccccc1)C2 (centres undefined)	98	.	i	0.96	.	.	.
Fc1ccc(-c2nnc(NC3=NCCCCC3)o2)cc1	103	-1.7	i	0.88	.	.	4
CC1(C)OC(=O)C(=NNc2ccc(C(=O)O)cc2)C(=O)O1	103	.	i	0.94	.	.	.
COc1ccc2[nH]c(=O)c(CN(C(=O)c3ccncc3)C(C)(C)C)cc2c1	88	-2.2	i	0.97	.	.	3
Cc1ccc(C2=NN(C(=O)COc3ncnc4ccccc34)C(c3ccco3)C2)cc1 (centres undefined)	96	.	i	0.92	.	.	9
O=C(CC1CS(=O)(=O)CC1CC(=O)Nc1ccc2c(c1)OCCO2)Nc1ccc2c(c1)OCCO2 (centres undefined)	99	.	i	1.1	.	.	-7
Cc1cc(C)n2nc(-c3sccc3-n3c(C)ccc3C)cc2n1	95	-0.2	i	0.93	-18	126	-7
Cc1ccnn1CC(=O)N/N=C/c1cn[nH]c1-c1ccc(F)cc1	100	.	i	0.85	.	.	.
Cc1ccc(C(=O)CSc2nnc(-c3ccco3)n2C)cc1	108	.	i	1	.	.	-2
CN(NS(C)(=O)=O)c1ncc(C(F)(F)F)cc1Cl	106	.	.	.	8	148	-5
COc1ccc2nc(NC3=NC(c4ccccc4)CC(=O)N3)nc(C)c2c1 (centres undefined)	106	2.0	i	0.91	16	100	-9
CCOC(=O)c1c(NC(=O)c2nn(CC)cc2Br)c(C#N)cn1-c1ccccc1	105	-1.4	i	0.88	33	10	-2
CCCCn1c(=O)c(CCC(=O)OCC(=O)NC(C)c2ccccc2)nc2ccccc21 (centres undefined)	55	.	i	1.1	.	.	-2
COc1ccc(CCNC(=O)CSc2nc(N)c3c(C)c(C)oc3n2)cc1OC	102	-0.8	i	0.96	44	116	-2
O=C(NNC(=O)C1C2CCC(C2)C1C(=O)O)c1ccc(Br)o1 (centres undefined)	107	0.0	i	1	49	116	-10
CCOC(=O)c1sc2nc(CC(=O)OC)nc(N3CCN(c4ccccn4)CC3)c2c1C	100	0.8	i	0.94	.	.	7

3 structures from above, sorted by SMILES length, lowest first:
structure	RGS16-Gao HTS	GALR2 ag	HSV augment	HSV augment primary fold	INS promoter inh	INS promoter inh cell count	PKD1 kinase inh
COc1ccc2nc(NC3=NC(c4ccccc4)CC(=O)N3)nc(C)c2c1 (centres undefined)	106	2.0	i	0.91	16	100	-9
COc1ccc(CCNC(=O)CSc2nc(N)c3c(C)c(C)oc3n2)cc1OC	102	-0.8	i	0.96	44	116	-2
CCOC(=O)c1sc2nc(CC(=O)OC)nc(N3CCN(c4ccccn4)CC3)c2c1C	100	0.8	i	0.94	.	.	7

Carrying on.
structure	RGS16-Gao HTS	GALR2 ag	HSV augment	HSV augment primary fold	INS promoter inh	INS promoter inh cell count	PKD1 kinase inh
CCC(=O)Nc1cccc(C(=O)/C=C/c2ccc(F)cc2)c1	93	.	i	0.59	14	138	-7
Cc1nc(NC(=O)Nc2ccc(Cl)cc2)sc1C	100	.	i	0.97	30	135	-5
O=C(c1ccccc1)c1nnc(-c2ccncc2)o1	102	-0.1	i	0.93	.	.	-4
O=C(Nc1cccc(C(F)(F)F)c1)c1ccc2nc(N3C(=O)CCC3=O)sc2c1	102	-2.0	i	1	-233	149	6
O=C1COc2ccc(C(=O)COC(=O)C3CC(O)CN3S(=O)(=O)c3ccc(Cl)cc3)cc2N1 (centres undefined)	101	.	i	1.1	.	.	-3
O=C(NC1CCCCC1)C1CCN(c2nccs2)CC1	102	-0.9	i	0.95	-57	132	-8
